IkB signaling – inhibitors of IkB signaling in ABC-DLBCL cells; ABC-DLBCL IkBa-CBG/CBR dual luciferase ratio, 4 h; response scale: scaled: untreated 0%, proteasome inhibitor 100%; Potency, µM (doses to about 57.1 µM), for inactives: at the top dose IkBa stabilization activation; hit rate 0.04% among 110,000; active = well fitted curve in the direction sought with a large enough effect in the signal ratio, not every such curve was filed as active; inconclusive = small, poorly fitted or top-dose-only effect, or a change in a side signal; the % refers to the signal ratio;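 note: the direction sought is a rising ratio; 0% = basal untreated cells and 100% = reference inhibitor full response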
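Curves were fitted separately to fusion (green), unfused (red) and ratio luminescence, then classed by r2, magnitude and activity. Cells: OCI-Ly3, 4 h compound plus doxycycline at 37C; 10 uM MG-132 defined full response.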
Imprint erasure – induces erasure of genomic imprints in mouse ES cells; mouse ES Peg3-LacZ reporter, beta-gal luminescence, 40 h; Potency, µM (titrated, usually from 60.7 µM), inactives show at the highest dose activity change, positive = activation, usual class: activators; hit rate 0.02% among 110,000; AID 1948; active = well fitted activation curve with a large enough effect; inconclusive = small, poorly fitted or top-dose-only effect; inactive = no such curve, though single readings can be large or run the other way;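 note: 0% = negative control wells on the plate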
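Gelatin-coated wells received 300 freshly trypsinized female ES cells with a Peg3LacZ-Neo reporter on the maternal allele, then incubated 40 hours at 37C. BetaGlo was added for 5 minutes at room temperature before a single luminescence read.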
An asterisk follows results filed as active; ? = inconclusive; . = no result given; & = joins results of further samples; [ ] = dose if it differs, or a comment. Potency is the fitted concentration of half-maximal effect. Only part of the results is shown; most or all hits stand in other tables.

SMILES	IkB signaling	Imprint erasure
O=C(NCc1ccc(F)cc1)c1nnc(Cc2cccc(F)c2)o1	?	-14.7%[10.9 µM]
CCC(=O)O[C@H]1C(O[C@@H]2C(C)[C@H](O[C@H]3C[C@@](C)(OC)C(O)C(C)O3)C(C)C(=O)OC(CC)[C@@](C)(O)C(O)[C@H](C)C(=O)C(C)C[C@]2(C)O)OC(C)CC1N(C)C (some centres not stated)	.	-16.6%
COc1ccc2cc(C(C)C(=O)O)ccc2c1 (configuration not stated)	.	-22.4%
COC1/C=C/OC2(C)Oc3c(C)c(O)c4c(O)c(c(/C=N/N5CCN(C)CC5)c(O)c4c3C2=O)NC(=O)/C(C)=C/C=C/C(C)C(O)C(C)C(O)C(C)C(OC(C)=O)C1C (configuration not stated)	.	-0.1%
CN(C)CCCO[C@H]1C([C@H](O)CO)O[C@@H]2OC(C)(C)O[C@@H]21 (some centres not stated)	.	-8.7%
Nc1c(Cl)cc([N+](=O)[O-])cc1Cl	0.9%	-5.2%
CNC1C(OC2C(O[C@@H]3C(O)C(O)[C@@H](N=C(N)N)C(O)C3N=C(N)N)OC(C)[C@@]2(O)CO)OC(CO)C(O)C1O (some centres not stated)	.	3.6%
CC(=O)OCC(=O)[C@@]12OC(C)(C)O[C@@H]1C[C@H]1[C@H]3C[C@H](F)C4=CC(=O)C=C[C@@]4(C)[C@]3(F)[C@H](O)C[C@@]12C	?	2.7%[16.8 µM]
O=[N+]([O-])c1ccc(Cl)c(Cl)c1	0.2%	-0.6%
C=C(NC(=O)C(=C)NC(=O)c1csc(C2=NC3c4csc(n4)C4NC(=O)c5csc(n5)C(C(C)(O)C(C)O)NC(=O)C5CSC(=N5)C(=CC)NC(=O)C(C(C)O)NC(=O)c5csc(n5)C3(CC2)NC(=O)C(C)NC(=O)C(=C)NC(=O)C(C)NC(=O)C(C(C)CC)NC2C=Cc3c(C(C)O)cc(nc3C2O)C(=O)OC4C)n1)C(N)=O (configuration not stated)	.	-33.8%[inhibitor]
O=C1c2ccccc2-c2n[nH]c3cccc1c23	-0.1%&-14.6%	-8.9%&-19.8%
NCCCC(N)(C(=O)O)C(F)F (configuration not stated)	.	-7.3%
CN(C)CCCOC1C(C(O)CO)OC2OC(C)(C)O[C@@H]21 (some centres not stated)	.	-6.3%
COc1ccc2cc1Oc1ccc(cc1)CC1c3cc(c(OC)cc3CCN1C)Oc1c(OC)c(OC)cc3c1C(C2)N(C)CC3 (configuration not stated)	.	-41.0%[inhibitor]
CNC[C@H](O)c1cccc(O)c1	-3.4%	-8.6%
O=C(NCc1cccc(F)c1)c1ccccc1NC(=O)c1nsc2ccccc12	0.0%	-11.4%[10.9 µM]
C[C@@H]1O[C@@H](O[C@H]2C[C@@H](O)[C@]3(CO)[C@@H]4C(CC[C@]3(O)C2)[C@@]2(O)CC[C@H](C3=CC(=O)OC3)[C@@]2(C)C[C@H]4O)[C@H](O)[C@H](O)[C@H]1O (some centres not stated)	.	-10.3%&4.4%
O=C1OCCN1/N=C/c1ccc([N+](=O)[O-])o1	.	-14.7%
C/C=C/c1ccc(OC)cc1	.	-4.6%
Cc1cn([C@@H]2C[C@H](N=[N+]=N)[C@H](CO)O2)c(=O)[nH]c1=O	0.0%[25.6 µM]	?
CN(C)[C@@H]1C(=O)C(C(N)=O)=C(O)[C@@]2(O)C(=O)C3=C(O)c4c(O)cccc4[C@@](C)(O)C3CC12 (some centres not stated)	.	2.8%
C=CC(N)CCC(=O)O (configuration not stated)	.	-8.6%&4.7%
C[C@H](N=C(NC#N)Nc1ccncc1)C(C)(C)C	0.6%	-6.1%
CC(Sc1nc2ccccc2s1)C(=O)N1CCOCC1 (configuration not stated)	-1.6%	-13.3%
CCN(CC)C(=O)c1ccc(O)c(OC)c1	-0.6%[25.6 µM]	-2.9%
C[N+](C)(C)CC(=O)O	6.0%	12.7%
CCCNCC(O)COc1ccccc1C(=O)CCc1ccccc1 (configuration not stated)	.	-45.3%&-42.1%[inhibitor]
CC(C)(C)c1ccc(CN2CCN([C@H](c3ccccc3)c3ccc(Cl)cc3)CC2)cc1	-0.8%[11.4 µM]	-9.2%[10.9 µM]
O=C(O)c1ccccc1O	.	-9.4%&-3.8%
C[C@]12CCC(=O)C=C1CC[C@@H]1C2[C@@H](O)C[C@@]2(C)[C@H]1CC[C@]2(O)C(=O)CO (some centres not stated)	.	-4.1%&-10.0%
CN(C)C1C(=O)C(C(N)=O)=C(O)[C@@]2(O)C(=O)C3=C(O)c4c(O)cccc4[C@@](C)(O)C3C[C@@H]12 (some centres not stated)	.	-9.0%
Cc1cnc(C(=O)NCCc2ccc(S(=O)(=O)NC(=O)NC3CCCCC3)cc2)cn1	0.6%[25.6 µM]	-5.8%
CNNCc1ccc(C(=O)NC(C)C)cc1	-0.5%[25.6 µM]	-5.7%[16.8 µM]
CC(=O)[O-].CC(=O)[O-].O.O.[Cd+2]	5.01µM*	-3.4%
Nc1ccc(S(N)(=O)=O)cc1	1.6%	-6.1%
CC1CC(=O)O1 (configuration not stated)	-0.4%	1.7%
CCCCCCCCC(=O)NCc1ccc(O)c(OC)c1	4.0%	12.4%&-1.8%
FB(F)F	1.4%	-1.9%
CCN1CCN(C(=O)CS(=O)Cc2nc(-c3ccc(OC)cc3)oc2C)CC1 (configuration not stated)	1.3%	-10.3%
CN1CCC[C@H]1c1cccnc1	-1.0%	-8.9%&-6.6%&-7.0%
CC1(C)S[C@H]2[C@@H](NC(=O)C(N)c3ccccc3)C(=O)N2[C@H]1C(=O)O (some centres not stated)	.	-9.0%
Cc1cc(/C=C/c2ccc3cc(N(C)C)ccc3[n+]2C)c(C)n1-c1ccccc1	.	-32.1%[inhibitor]
NNCc1ccccc1	.	-21.9%
CN(C(=O)CN(CCO)CC(=O)N(C)C(C)(C)Cc1ccccc1)C(C)(C)Cc1ccccc1	0.4%[25.6 µM]	-3.2%
CC(C)(C)c1ccccc1O	2.8%	5.2%
C=C(C)C(=O)OCCCCCCCCCC	-2.3%	-6.8%
CN(C)/N=N/c1nc[nH]c1C(N)=O	-2.9%	-11.5%&6.4%
COc1cc2nc(N(C)CCCNC(=O)C3CCCO3)nc(N)c2cc1OC (configuration not stated)	.	-1.9%
Cc1[nH]nc2c1C(c1ccccc1)C1=C(CC(C)(C)CC1=O)N2 (configuration not stated)	-1.6%	-12.8%
Nc1nc(N)nc(-c2ccccc2)n1	7.5%	-10.9%
Further compounds follow.
SMILES	IkB signaling	Imprint erasure
O=C(C(Cc1ccccc1)N1C(=O)C2C3C=CC(C3)C2C1=O)N1CCCCCC1 (configuration not stated)	-1.9%	12.0%
CN(C)CC[C@@H](c1ccc(Cl)cc1)c1ccccn1	.	-21.3%&-18.5%
CCOC(=O)c1ccc(NC(=O)CSc2nc3c(c(=O)n2CC)SC(C)C3)cc1 (configuration not stated)	2.7%	-22.8%
CCCC(=O)OC1(C(=O)CO)CCC2C3CCC4=CC(=O)CCC4(C)C3C(O)CC21C (configuration not stated)	.	-7.3%
CC[C@H](C)C(=O)O[C@H]1C[C@H](O)C=C2C=C[C@H](C)[C@H](CC[C@@H](O)C[C@@H](O)CC(=O)O)[C@H]21	.	6.8%
O=C(Cl)c1ccc([N+](=O)[O-])cc1	0.1%	-2.4%
CCn1cc(C(=O)O)c(=O)c2cc(F)c(N3CCN(C)CC3)cc21	.	-13.7%
Cc1ccc(Cl)c(Nc2ccccc2C(=O)O)c1Cl	?	-10.8%
COc1cccc2c1C(=O)c1c(O)c3c(c(O)c1C2=O)C[C@](O)(C(C)=O)C[C@H]3O[C@@H]1C[C@H](N)[C@H](O)[C@H](C)O1	?	-36.4%[inhibitor][16.8 µM]
CCn1cc(C(=O)NCc2ccco2)c(=O)c2cc(S(=O)(=O)N3CC(C)CC(C)C3)ccc21 (configuration not stated)	2.0%	-9.1%
CCC(=O)NCCC1CCc2ccc3c(c21)CCO3 (configuration not stated)	.	-21.8%
COc1ccc(C[C@@H]2C(=O)N[C@H](C)C(=O)N(C)[C@@H]3C(=O)N(C)[C@@H](Cc4ccc(O)c(c4)Oc4ccc(cc4)[C@H]3O)C(=O)N[C@@H](C)C(=O)N[C@H](C)C(=O)N2C)cc1	?	-25.4%[10.9 µM]
C[C@@H]1O[C@@H](O[C@H]2C[C@@H](O)[C@@]3(CO)[C@H]4[C@H](O)C[C@]5(C)[C@@H](C6=CC(=O)OC6)CC[C@]5(O)[C@H]4CC[C@@]3(O)C2)[C@@H](O)[C@H](O)[C@H]1O	?	-8.5%[10.9 µM]
Clc1ccc(CSC(Cn2ccnc2)c2ccc(Cl)cc2Cl)cc1 (configuration not stated)	.	-30.9%[inhibitor]
BrCCBr	1.4%	0.8%
COc1ccc2c(c1)c1c3n2CCN(C)C3=NCC1	-0.6%	-11.8%
COc1ccc(CC(N)C(=O)NC2C(CO)OC(n3cnc4c(N(C)C)ncnc43)C2O)cc1 (configuration not stated)	.	-36.9%[inhibitor]
Cn1c(CCN2CCCCC2)nc2cc(NS(=O)(=O)c3ccccc3)ccc21	-1.0%	-6.4%
N[C@H](Cc1ccc(O)cc1)C(=O)O	.	1.5%
O=c1[nH]cnc2[nH]ncc12	2.2%&-3.5%	-4.1%&-12.0%&6.2%
CCN1C(=O)N[C@@H](c2ccccc2)C1=O	2.5%[25.6 µM]	-7.7%[16.8 µM]
Nc1c[n+](N2CCOCC2)no1	0.5%	-0.7%
CCc1ccccc1	-0.8%	8.5%
CC(=O)[C@@H]1CC[C@H]2[C@H]3CC[C@H]4C[C@@H](O)CC[C@]4(C)[C@@H]3C(=O)C[C@@]12C	0.5%[25.6 µM]	-2.0%[16.8 µM]
NC[C@H](CC(=O)O)c1ccc(Cl)cc1	0.9%	?
C=CCN1CC[C@]23c4c5ccc(O)c4O[C@@H]2C(=O)CC[C@]3(O)[C@H]1C5	0.3%	-0.6%
Cc1ccc(C)c([N+](=O)[O-])c1	-0.7%	-4.2%
NNC(N)=O	0.4%&-4.7%	-2.5%&-1.6%
CC1=C(C(=O)O)N2C(=O)[C@@H](NC(=O)[C@@H](N)C3=CCC=CC3)[C@@H]2SC1	0.0%	.
O[C@@](CCN1CCCCC1)(c1ccccc1)C1CCCCC1	-0.9%[25.6 µM]	-11.2%[16.8 µM]
Clc1ccc(COC(Cn2ccnc2)c2ccc(Cl)cc2Cl)c(Cl)c1 (configuration not stated)	2.0%[25.6 µM]	-15.6%
C=C(NC(=O)C(=C)NC(=O)c1csc(C2=N[C@@H]3c4csc(n4)[C@@H]4NC(=O)c5csc(n5)[C@@H]([C@](C)(O)[C@H](C)O)NC(=O)[C@@H]5CSC(=N5)/C(=C/C)NC(=O)[C@@H]([C@H](C)O)NC(=O)c5csc(n5)[C@]3(CC2)NC(=O)[C@@H](C)NC(=O)C(=C)NC(=O)[C@@H](C)NC(=O)[C@@H]([C@@H](C)CC)N[C@H]2C=Cc3c([C@H](C)O)cc(nc3[C@@H]2O)C(=O)O[C@H]4C)n1)C(N)=O	8.8%[25.6 µM]	-34.4%[inhibitor][16.8 µM]
CC(C)[N+]1(C)C2CCC1CC(OC(=O)C(CO)c1ccccc1)C2 (configuration not stated)	.	-3.9%
CC(=O)O.CC(=O)O.[Cd]	.	-4.5%
ClC(Cl)=C(Cl)C(Cl)=C(Cl)Cl	1.2%	-5.4%
O=C1C(CCS(=O)c2ccccc2)C(=O)N(c2ccccc2)N1c1ccccc1 (configuration not stated)	-0.5%[25.6 µM]	-17.7%
N#CC(O)c1ccccc1 (configuration not stated)	0.4%	3.0%

Eleven of these compounds, set out differently:
Order of results: IkB signaling | Imprint erasure
- Cc1ccc(C)c([N+](=O)[O-])c1
 : -0.7% | -4.2%
- NNC(N)=O
 : 0.4%&-4.7% | -2.5%&-1.6%
- CC1=C(C(=O)O)N2C(=O)[C@@H](NC(=O)[C@@H](N)C3=CCC=CC3)[C@@H]2SC1
 : 0.0% | .
- O[C@@](CCN1CCCCC1)(c1ccccc1)C1CCCCC1
 : -0.9%[25.6 µM] | -11.2%[16.8 µM]
- Clc1ccc(COC(Cn2ccnc2)c2ccc(Cl)cc2Cl)c(Cl)c1 (configuration not stated)
 : 2.0%[25.6 µM] | -15.6%
- C=C(NC(=O)C(=C)NC(=O)c1csc(C2=N[C@@H]3c4csc(n4)[C@@H]4NC(=O)c5csc(n5)[C@@H]([C@](C)(O)[C@H](C)O)NC(=O)[C@@H]5CSC(=N5)/C(=C/C)NC(=O)[C@@H]([C@H](C)O)NC(=O)c5csc(n5)[C@]3(CC2)NC(=O)[C@@H](C)NC(=O)C(=C)NC(=O)[C@@H](C)NC(=O)[C@@H]([C@@H](C)CC)N[C@H]2C=Cc3c([C@H](C)O)cc(nc3[C@@H]2O)C(=O)O[C@H]4C)n1)C(N)=O
 : 8.8%[25.6 µM] | -34.4%[inhibitor][16.8 µM]
- CC(C)[N+]1(C)C2CCC1CC(OC(=O)C(CO)c1ccccc1)C2 (configuration not stated)
 : . | -3.9%
- CC(=O)O.CC(=O)O.[Cd]
 : . | -4.5%
- ClC(Cl)=C(Cl)C(Cl)=C(Cl)Cl
 : 1.2% | -5.4%
- O=C1C(CCS(=O)c2ccccc2)C(=O)N(c2ccccc2)N1c1ccccc1 (configuration not stated)
 : -0.5%[25.6 µM] | -17.7%
- N#CC(O)c1ccccc1 (configuration not stated)
 : 0.4% | 3.0%

Screens (PubChem BioAssay)
